# Screening data as filed in PubChem BioAssay.
# 2A firefly: Primary qHTS Assay for Foot and Mouth Disease Virus Antivirals against NCGC Sytravon and CBC Compound Libraries: Firefly Luciferase Signal | HEK cells with a luciferase reporter of 2A StopGo recoding | Potency, µM (series often up to 57.5 µM), without a hit: top-dose signal change, negative = less light | actives 0.23% (n = 120,000); active = well fitted falling curve with a large enough effect; inconclusive = small, poorly fitted or top-dose-only effect; inactive = no such curve, though single readings can be large or run the other way; further: nearly all actives have a fitted effect of over 60% in size; overnight with compound
# StopGo RLuc: Primary qHTS Assay for Foot and Mouth Disease Virus Antivirals against NCGC Sytravon and CBC Compound Libraries: Renilla Luciferase Signal; HEK cells with a luciferase reporter of 2A StopGo recoding; Potency, µM (highest dose often 57.5 µM), for inactives: at the highest dose signal change, negative = less light; actives 0.32% (n = 120,000); AID 1745857, 2022; active means well fitted falling curve with a large enough effect; inconclusive means small, poorly fitted or top-dose-only effect; inactive means no such curve, though single readings can be large or run the other way; further: nearly all actives have a fitted effect of over 55% in size; overnight with compound
# The depositor's hits bear a star; u = inconclusive; [ ] = remark or other dose. On the % scale 0 is the no-effect control and ±100 the full control effect; potency means the concentration at half of the fitted maximal effect. Some of the compounds tested. The share of hits here may be higher or lower than overall.
smiles,2A firefly,StopGo RLuc
Cc1ccc(CNC(=O)CSc2nnc(C(=O)Nc3ccc(C)cc3)s2)cc1,123%[activator],-2%
S=C(Cc1nc(-c2ccc(C3CCCCC3)cc2)cs1)N1CCOCC1,90%[activator],14%
O=C(Cn1cc(/C=C2\NC(=O)N(Cc3ccccc3Cl)C2=O)c2ccccc21)N1CCOCC1,-3%,-9%
CCOC(=O)N1CCN(C(=O)CNC(=O)c2cc3cc(OC)c(OC)cc3n2C)CC1,-1%,-5%
CCCN(C(=O)c1c(C)oc2ncn(CC(C)C)c(=O)c12)c1ccccc1C,-8%,4%
CCOC(=O)c1[nH]c(C)c(C(=O)OCC(=O)OC)c1C,2%,-11%[1.06 µM]
O=C(CN1C(=O)c2cccnc2Oc2ccc(Cl)cc21)Nc1cccc(C(F)(F)F)c1,-15%,4%
CCCc1cc(C(=O)Nc2cnn(Cc3ccccc3C)c2)no1,138%[activator],10%
CN(C)c1ccc(C(=C2C=CC(=[N+](C)C)C=C2)c2ccc(N(C)C)cc2)cc1,u,u
Cc1cc(=O)[nH]c2nnc(SCCC(C)C)n12,-13%,2%
Cc1ccc(CNC(=O)Nc2cc(C(=O)NCc3ccc(C(C)C)cc3)ccc2N2CCCC2)cc1,-1%,-2%
O=C(Nc1ccc2oc(-c3ccc(F)cc3)nc2c1)c1ccccc1,60%[activator],7%
Cc1ccc(-c2cc(C(=O)Oc3ccccc3)c3cccc(C)c3n2)cc1,8%,-11%
CC(=O)Nc1ccccc1NC(=O)CCC1CCCC1,0%,65%[activator]
COc1ccc(-n2ccnc(NCc3ccccc3Cl)c2=O)cc1OC,-2%,6%
CCc1ccc(NC(=O)CN2C(=O)CN=C(c3ccc(OC)cc3)c3c2sc2c3CCC2)cc1,-7%,-7%
CCN=C1NN=C(c2c[nH]c3ccccc23)CS1,89%[activator],1%
CCCCCCCC(=O)Nc1c(C)cccc1CC,-4%,12%
CN(C(=O)CSc1nc2ccccc2n1CC(=O)N(C)C1CCCCC1)c1ccc(F)cc1,2%,7%
CCOC(=O)c1ccc(NC(=O)c2nc(SCc3ccc(F)cc3)ncc2Cl)cc1,-10%,-13%
Cc1ccc(-n2nc(C)c3c(C)cc(=O)n(CC(=O)Nc4ccc(C(C)C)cc4)c32)cc1,-21%,-10%
O=C(Nc1ccccc1C(=O)N1CCN(c2ccccc2)CC1)C1CC(=O)N(c2ccc(F)cc2)C1 (stereo unspecified),-2%,-9%
CN(C)N1C(=O)CC(c2c(F)cccc2Cl)C2=C1CC(C)(C)CC2=O (stereo unspecified),-3%,8%
Nc1cc(-n2cccc2)ccc1F,3%,-3%
CN1CCN(S(=O)(=O)c2ccc(Br)c3ccccc23)CC1,-13%,20%
COc1ccc(N2CCN(C(=O)c3cn(C)c4ccc(S(=O)(=O)N5CCOCC5)cc4c3=O)CC2)cc1,-11%,-2%
Cc1ccc(-c2nn3c(c2C)NC(=O)CC3C(=O)Nc2ccc3c(c2)OCO3)cc1 (stereo unspecified),9%,-11%
O=C(NN1CCOCC1)c1ccn(COc2cccc(Cl)c2Cl)n1,10%,-4%
CO[C@@H]1[C@@H](OC(N)=O)[C@@H](O)[C@H](Oc2ccc3c(O)c(NC(=O)c4ccc(O)c(CC=C(C)C)c4)c(=O)oc3c2C)OC1(C)C,-11%[11.5 µM],-11%
CC(C)NC(=O)C1CCN(c2nc3ccccc3nc2C(F)(F)F)CC1,-2%,-5%
CCOC(=O)c1ccc(NC(=O)CCCc2nc(-c3ccccc3Cl)no2)cc1,-23%,-9%
Cc1oc2ccc(O)c(CN(C)Cc3ccccc3)c2c1C(=O)Nc1cccc(Cl)c1C,-28%,-4%
Cc1ccc(OCC(=O)Nc2ccc3oc(-c4ccccc4F)nc3c2)c(-n2cnnc2)c1,43%,3%
Cc1cc(CNC(=O)C2CCCCC2)c2ccccc2n1,12%,-9%
O=C(Nc1ccc(NC(=O)c2cc3ccccc3o2)cc1)c1ccccc1,2%,7%
COC(=O)c1ccc(Oc2c(C)oc3cc(OC(=O)N4CCOCC4)ccc3c2=O)cc1,-14%,-20%
CC(=O)OC1=CN(Cc2ccccc2)S(=O)(=O)c2ccccc21,-4%,-8%
COCCn1c(Br)nc2c1c(=O)n(C)c(=O)n2C,4%,0%
CCCCc1cc(=O)oc2c(C)c(OCC(=O)NCc3ccccn3)ccc12,-1%,-6%
COc1ccc(C(=O)Oc2ccc(/C=C(\C#N)c3nc4cc(C)c(C)cc4[nH]3)cc2)cc1,11%,19%
COc1cccc(Cn2c(CNC(=O)C(C)C)nc3cccnc32)c1,-11%,-3%
CCOc1cc2[nH]c(=O)n(CCCCCC(=O)NC(C)CC)c(=O)c2cc1OCC (stereo unspecified),-4%,2%
c1ccc(CN2CCN(c3ncnc4scc(-c5ccccc5)c34)CC2)cc1,u,u
COc1cccc(-c2nc(CS(=O)(=O)CC(=O)NCc3ccccc3Cl)c(C)o2)c1,-7%,29%
COc1cccc(CNCCc2ccccc2)c1,21%,-1%
CCCCSCCCNC(=O)C1CCN(Cc2nc(-c3ccc(CC)cc3)oc2C)CC1,29%,-7%
C#CCNC(=O)CSc1nc(-c2cccs2)nc2ccccc12,7%,-4%
Cc1ccccc1-c1nc2scc(CCNC(=O)C(=O)Nc3ccc4c(c3)OCCO4)n2n1,1%,-10%
CC(C)(C)C(=O)Nc1c(NC2CCCC2)c2ccccc2oc1=O,0%,-11%
Cn1cnc2c(=O)oc3ccc(S(=O)(=O)N4CCN(c5ccccc5F)CC4)cc3c21,3%,-10%
Cc1ccccc1-c1noc(CSc2nnc(C3CC3)n2-c2ccccc2)n1,15%,16%
O=C(Cn1ccc2cc(S(=O)(=O)N3CCCCCC3)ccc21)NCc1ccccc1Cl,-8%,113%[activator]
CN(CC(=O)N1CCCC1)c1nc(-c2ccccc2)nc2ccccc12,10%,27%
Cc1c(Cl)cccc1NC(=O)CSc1nc(=O)[nH]c2c1CCCC2,-17%,-11%
Cn1c(=O)c2c(nc(Br)n2CC(=O)c2ccc(F)cc2)n(C)c1=O,9%,-8%
Cc1ccc2[nH]cc(C(C(=O)O)N3CCN(Cc4nonc4C)CC3)c2c1 (stereo unspecified),-11%,-6%
Cc1nc(C#N)c(N2CCN(C(=O)CN(C)C(C)C(C)(C)C)CC2)o1 (stereo unspecified),-11%,-4%
NC(N)=N/N=C\c1ccccc1,19%,4%
COc1cc(/C=C(/C#N)C(=O)C(C)(C)C)ccc1OC(F)F,18%,18%
Cc1cccc(NC(=O)c2ncoc2-c2cccs2)c1C,117%[activator],11%

# (cont.)
smiles,2A firefly,StopGo RLuc
Fc1cccc(-n2c(SCc3nc4ccccc4o3)nnc2N2CCOCC2)c1,78%[activator],40%[activator]
Cc1ccc(NC(=O)Nc2c(C)n(C)n(-c3ccccc3)c2=O)c(Cl)c1,-19%,-10%
COc1ccc(C(C)=O)cc1COC(=O)/C=C/c1cccc(Br)c1,3%,-2%
O=C(NCCCN1CCN(c2ccccc2)CC1)c1sc2ncccc2c1-n1cccc1,-29%,-7%
CCOc1ccc(/C=C(\C)[N+](=O)[O-])cc1,u,-27%
COc1c(Cl)cc(Cl)cc1C(=O)Nc1cccc2cccnc12,-7%,-8%
CC(C)Cc1nc(OCC(=O)O)c(C#N)c2c1CCCC2,21%,15%
Cc1n[nH]c(C)c1C(=O)CC1(O)C(=O)N(C(C)C)c2ccccc21 (stereo unspecified),-6%,7%
COc1ccc(C2CC(=O)c3cc(-c4nc(-c5cccc([N+](=O)[O-])c5)cs4)c(=O)n(-c4ccccc4N)c3C2)cc1 (stereo unspecified),14%,-6%
Cc1noc(-c2ccc(OCc3ccc(F)cc3)cc2O)c1-c1ccccc1,16%,9%
Cc1ccc(NS(=O)(=O)c2c(C(=O)N3CCC(C)CC3)c(C)n(C)c2C)cc1Cl,5%,264%[activator]
O=C(N[C@H](CO)Cc1ccccc1)c1nc(-c2ccc3[nH]ccc3c2)no1,11%,0%
COc1ccccc1CNC(=O)CC(c1ccc(C)cc1)N1Cc2ccccc2C1=O (stereo unspecified),27%,198%[activator]
COc1cc(NC(=O)NCCn2c(C(F)(F)F)nc3ccccc32)cc(OC)c1,7%,0%
COc1ccc(Br)cc1CN1CCCC(C(=O)N2CCN(C)CC2)C1 (stereo unspecified),-12%,-16%
COc1ccc2c(C)c(CCC(=O)N3CCOCC3)c(=O)oc2c1C,179%[activator],14%
CCCCCNC(=O)c1ccc2c(c1)ncn2-c1cccc(C)c1,0%,6%
COc1ccc(C2C(C(C)=O)=C(O)C(=O)N2c2ccc(C)c(Br)c2)c(OC)c1 (stereo unspecified),0%,60%[activator]
CCOc1ccc(N2CC(c3nc4ccccc4n3Cc3cccc(Cl)c3)CC2=O)cc1 (stereo unspecified),-12%,12%
CCOc1ccc(CNC(=O)c2ccc3c(c2)c(C)c(C)n3Cc2ccccc2)cc1OC,16%,21%
CC(CCc1ccccc1)NC(=O)c1cc(=O)c2ccccc2o1 (stereo unspecified),13%,3%
CNC(=O)NC(=O)CN(C)c1ccc(I)cc1,3%,5%
CCCOc1ccc(NC(=O)COc2ccc(OC)cc2)c2cccnc12,-4%,-12%
CNc1snc(C)c1C(=O)OCc1csc(-c2ccc(F)cc2)n1,u,0.71µM*
CC(C)NC(=O)CSc1nc(C2CC2)nc2ccccc12,0%,-11%
Cc1cc(C)cc(NC(=S)NC2CCCC(C)C2C)c1 (stereo unspecified),-2%,107%[activator]
CC(=O)Nc1cccc(NC(=O)CSc2cn(CC(=O)N3CCCCCC3)c3ccccc23)c1,10%,10%
CCc1ccc(NC(=O)CSc2nccn2-c2cccc(C)c2C)cc1,76%[activator],12%
Cc1ccc(CNC(=O)CCCNC(=O)C(C)(C)C)cc1,-6%,6%
CCN(CC)S(=O)(=O)c1ccc(N2CCN(C)CC2)c(NC(=O)Cc2ccccc2)c1,-15%,3%
O=C(NCCC1=CCCCC1)c1ccc2c(c1)N(Cc1cccc(Cl)c1)C(=O)c1ccccc1S2(=O)=O,-12%,-1%
O=C(C1=C(O)C(=O)N(CCCn2ccnc2)C1c1ccncc1)c1cc2ccccc2o1 (stereo unspecified),1%,-5%
Cc1ccc(Cn2c(N3CCN(Cc4cccc5ccccc45)CC3)nc3c2c(=O)[nH]c(=O)n3C)cc1,-2%,0%
O=c1oc2ccccc2cc1-c1nc(-c2cccs2)no1,66%[activator],-1%
Cc1ccc(C(=O)Nc2ccc3oc(-c4ccncc4)nc3c2)cc1,36%[activator],4%
Cc1ccc(C(c2cccc(Br)c2)c2c(C)[nH]c3ccccc23)s1 (stereo unspecified),12%,-2%

# Given with two lines to a compound: entries from further up
# Each structure is followed by: 2A firefly, StopGo RLuc
Cc1ccc(CNC(=O)CCCNC(=O)C(C)(C)C)cc1
  -6%, 6%
CCc1ccc(NC(=O)CSc2nccn2-c2cccc(C)c2C)cc1
  76%[activator], 12%

# (list continues)
smiles,2A firefly,StopGo RLuc
COc1cccc(CNC(=O)Cn2c(=O)oc3cc(S(=O)(=O)N4CCCCCC4)ccc32)c1,u,u
CCOC(=O)c1ccc(-c2ccc(/C=C(\C#N)C(=O)Nc3ccc(OCC)cc3)o2)cc1,7%,-9%
O=C(c1ccc2ncsc2c1)N(Cc1ccccc1)Cc1ccco1,49%[activator],153%[activator]
CCN(CC)C(=S)Nc1ccc(F)cc1,15%,47%[activator]
COc1cccc(Nc2nc3ccccc3nc2NS(=O)(=O)c2ccc(C)c(C)c2)c1,13%,78%[activator]
CN1CCN(c2ccc3nnc(CCC(=O)NCC4CCN(Cc5ccc(F)cc5)CC4)n3n2)CC1,-8%,-12%
Cc1cccc(Cn2c(=O)n(Cc3ccc4c(c3)OCO4)c(=O)c3oc4ccccc4c32)c1,-19%,12%
COC(=O)c1ccc(NC(=O)Cn2nc(-n3nc(C)cc3C)ccc2=O)cc1,4%,-8%
CCc1ccc(CNC(=O)c2cnc3sc(N4CCCC4)nn3c2=O)cc1,-3%,-2%
Cc1ccc2c(CSc3nnc(NCC(C)C)s3)cc(=O)oc2c1,8%,9%
O=C(CSc1nc(Cl)nc2nc[nH]c12)Nc1cccc(F)c1,11%,5%
Cc1ccc(NC(=O)CC(C)(C(=O)O)c2ccccc2)c(O)c1 (stereo unspecified),41%[activator],21%
C=CCNc1oc(-c2ccc(COc3cccc(C)c3)o2)nc1C#N,17%,-19%
CC(On1nnc2ccc(Cl)cc21)C(=O)Nc1ccccc1Cl (stereo unspecified),50%[activator],22%
COc1nc2ccccc2nc1N1CCC(C(=O)Nc2ccc(Oc3ccccc3)cc2)CC1,-10%,-10%
C/C=C/CSc1nc2c(c(=O)n(C)c(=O)n2C)n1Cc1ccccc1,1%,-7%
Cc1ccc(NC(=O)c2cc(-c3ccncc3)nc3ccccc23)c(C)c1,2%,-1%
O=C(Nc1ccc(Br)cc1F)c1cc(S(=O)(=O)NC2CCCC2)ccc1F,-15%,53%[activator]
CCCSc1ccccc1C(=O)Nc1cccc(C)c1C,8%,56%[activator]
COc1cccc(CNC(=O)C2CCCN(S(=O)(=O)c3cn(C)cn3)C2)c1 (stereo unspecified),-14%,3%
